gsp ag = gsp mutant agonism | 340,000 compounds, 0.13% hits | Potency, µM (highest dose often 76.9 µM), for inactives: top-dose activation (cAMP increase), most hits filed as activators | AID 624287 | gsp mutant cells, cAMP HTRF, 30 min; control for the full effect not named in the record; active = well fitted activation curve with a large enough effect; inconclusive = small, poorly fitted or top-dose-only effect, or another doubt; inactive = no such curve, though single readings can be large or run the other way; cell line not stated here;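 note: phosphodiesterase inhibitor Ro 20-1724 added with compounds to block cAMP breakdown; potency is the fitted concentration of half-maximal effect; nearly all actives have a fitted effect of over 60% in size; about a fifth of the inactives were tested at one dose only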
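Cells stably selected in G418 were plated at 2000/well, grown 16-24 hr, then given compounds in DMSO with the PDE inhibitor […] (300 uM solution added) for 30 min at 37C; cAMP was read by HTRF.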
Sfp inh = blocks B. subtilis Sfp PPTase activity; Q9F4F7; Biochemical Sfp PPTase activity, qHTS; Potency, µM, for the others: max response, negative = inhibition, hits mostly inhibitors; 310,000 compounds, 3.5% hits; AID 1490; active = well fitted inhibition curve with a large enough effect; inconclusive = small, poorly fitted or top-dose-only effect, or another doubt; inactive = no such curve, though single readings can be large or run the other way;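 note: the enzyme is Sfp with the accession as filed and its product quenches rhodamine fluorescence; potency is the fitted concentration of half-maximal effect; 0% = enzyme reaction without inhibitor and -100% = no enzyme wells; top concentration of the series not given in the record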
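Fluorescence-quenching assay with 15 nM Sfp, 5 uM rhodamine-CoA and 12.5 uM BHQ-2-labelled ybbR peptide in pH 7.6 Hepes/MgCl2 buffer. Enzyme was pre-incubated with compound for 15 min at room temperature. Rate was taken from the 30-min fluorescence change (525/598 nm).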
TRPV1 potentiator = potentiators of human vanilloid receptor 1 (TRPV1). TRPV1-expressing cells, Fluo-8 calcium influx, capsaicin EC20 potentiation; host cell line not named in the record; control for the full effect not named in the record. 320,000 compounds, 0.02% hits. potentiation, % at 8.33 µM. Q8NER1; active means potentiation above 80%; inconclusive means 30% to 80%; inactive means below 30%; note: 0% is about no effect
Target sequence (Q8NER1 whole entry, looked up): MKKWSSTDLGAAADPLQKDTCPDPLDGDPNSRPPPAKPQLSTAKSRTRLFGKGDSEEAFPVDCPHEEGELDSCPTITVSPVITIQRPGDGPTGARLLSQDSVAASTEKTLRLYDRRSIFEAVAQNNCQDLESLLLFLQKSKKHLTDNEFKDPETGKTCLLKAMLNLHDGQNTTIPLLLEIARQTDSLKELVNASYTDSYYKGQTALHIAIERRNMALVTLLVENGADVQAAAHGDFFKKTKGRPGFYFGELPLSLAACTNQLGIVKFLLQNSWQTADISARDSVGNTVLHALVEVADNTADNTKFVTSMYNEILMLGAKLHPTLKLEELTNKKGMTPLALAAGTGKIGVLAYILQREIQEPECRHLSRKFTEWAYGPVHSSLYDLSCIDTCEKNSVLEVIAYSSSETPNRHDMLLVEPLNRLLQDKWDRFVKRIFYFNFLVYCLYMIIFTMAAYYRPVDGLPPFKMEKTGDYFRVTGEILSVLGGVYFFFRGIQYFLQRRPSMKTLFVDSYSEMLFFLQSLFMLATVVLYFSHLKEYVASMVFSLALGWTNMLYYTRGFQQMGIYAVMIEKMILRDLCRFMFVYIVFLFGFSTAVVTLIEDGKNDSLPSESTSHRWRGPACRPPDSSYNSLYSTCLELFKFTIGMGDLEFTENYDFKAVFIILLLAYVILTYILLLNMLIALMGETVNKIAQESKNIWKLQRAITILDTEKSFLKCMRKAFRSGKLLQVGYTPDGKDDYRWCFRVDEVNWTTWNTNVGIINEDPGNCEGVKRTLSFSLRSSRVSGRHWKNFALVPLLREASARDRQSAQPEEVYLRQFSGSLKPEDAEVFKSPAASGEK
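Fluo-8 calcium influx in TRPV1-expressing cells, kinetic read (ex 480/em 520 nm). Compound added and read 3 min for agonist activity, followed by capsaicin at EC20 final and 2 min further read for enhancement.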
Menin-MLL FL inh = inhibitors of human menin-MLL interaction, wild-type MLL peptide; 290,000 tested, under 10 active; FP activity change, % at 61.4 µM; Fluorescence polarization, fluorescein-MLL peptide displacement from menin; inconclusive = falling polarisation curve, or a change in total fluorescence; inactive = total fluorescence flat and polarisation flat or rising; no compound was filed as active; the % refers to the polarisation; negative = inhibition;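 note: % of control where 0% means no effect; inhibitors lower the polarisation; unlabelled MLL peptide was the positive control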
gsp antagonist = antagonizes gsp, the McCune-Albright syndrome mutation; gsp-mutant cells, cAMP HTRF, 30 min; control for the full effect not named in the record; Potency, µM (doses to about 76.9 µM), inactives show top-dose activity change, negative = inhibition, most hits filed as inhibitors; 340,000 compounds, 0.4% hits; active = falling curve of any shape with a large fitted effect; inconclusive = falling curve, mostly with a smaller effect; inactive = flat or rising curve; cell line not stated here;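 note: intracellular cAMP measured with PDE inhibitor Ro 20-1724 present during compound exposure; potency is the fitted concentration of half-maximal effect; % is set by controls: 0 for no effect and ±100 for the full control effect; nearly all actives have a fitted effect of over 65% in size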
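Measurement of cellular cAMP by homogeneous time-resolved fluorescence following a 30 min compound exposure at 37C. The PDE inhibitor […] was present throughout; the assay buffer was DPBS with 0.05% BSA and 0.005% Tween 20.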
TRPML1 inh = human mucolipin-1 channel inhibition. 390,000 compounds, 0.02% hits. Q9GZU1. activity change, negative = inhibition, % (concentration not given with the values). TRPML1-inducible cells, Ca2+ dye fluorescence, FDSS; stronger effect = lower value; inhibition of EC80 agonist-evoked calcium signal; in the data active means activity change below about -50%; inconclusive means about -30% to -50%; inactive means above about -30%;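 note: stimulus is agonist 54-4 at its EC80 concentration; % is set by controls: 0 for no effect and ±100 for the full control effect; the text of the record puts the active cut at -80%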
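Calcium fluorescence in TRPML1-DL cells induced overnight with Tet: a 110 s read after compound pin addition, then a 110 s antagonist read after challenge with 54-4 at 4 uM final (EC80).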
ClpP mod = qHTS Assay for Activators of ClpP. ATP-dependent Clp protease proteolytic subunit (Bacillus subtilis (strain 168)), P80244. purified B. subtilis ClpP, FRET peptide cleavage, 20 min. Potency, µM (series often up to 57.5 µM), inactives show at the top dose activity change, negative = active. 340,000 compounds, 1.9% hits; active = well fitted falling curve with a large enough effect; inconclusive = small, poorly fitted or top-dose-only effect; inactive = no such curve, though single readings can be large or run the other way; note: potency is the fitted concentration of half-maximal effect; the source files actives as falling curves though it sought activators and does not explain the sign; nearly all actives have a fitted effect of over 65% in size; many hits overshoot -100%
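ClpP 10 microg/mL final, pH 8 Tris/KCl buffer with BSA, glycerol, Tween-20; compound pinned in; FRET-FV substrate; RT 20 min; Ex320/Em430; ΔFRET vs ADEP 5.8 microM, DMSO, no enzyme.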
Active calls of the source: *; ? = inconclusive; / = not tested or not shown; [ ] = remark or other dose. Compounds were not picked by outcome; any-hit rate near 4.9%.

1) CCOC(=O)/C=C1\NC(C)(C)Cc2cc(OC)c(OC)cc21
2) CCn1c(CCNC(=O)c2cccs2)nnc1SCC(=O)c1ccc(OC)cc1
3) COc1ccc(Cl)cc1NC(=O)CN1C(=O)NC(C)(Cc2ccc(OC)c(OC)c2)C1=O (centres undefined)
4) CCN1CCN(C(=O)CCN2C(=O)COc3ccc(C)cc32)CC1
5) COc1nc(N2CCOCC2)nc(-n2cccc2)n1
6) CC(C)C[C@@H](CSc1ccc(Br)cc1)N1CCN(CC(C)C)CCC1=O
7) Nc1ncnc2c1ncn2[C@@H]1O[C@H](CNCC#Cc2ccccc2)[C@@H](O)[C@H]1O
8) NC(=O)CC(NC(=O)c1ccccc1)c1ccc(NCCN2CCOCC2)c([N+](=O)[O-])c1 (centres undefined)

| assay / compound | 1 | 2 | 3 | 4 | 5 | 6 | 7 | 8 |
| --- | --- | --- | --- | --- | --- | --- | --- | --- |
| gsp ag | 13% | 11% | -3% | 18% | -26% | / | / | -9% |
| Sfp inh | 2% | / | / | 18% | -23% | -11% | / | 16% |
| TRPV1 potentiator | 1 | / | -1 | 3 | 16 | -32 | / | 6 |
| Menin-MLL FL inh | 0.5 | / | / | 0.6 | -4.6 | 2.1 | / | -0.9 |
| gsp antagonist | 14% | -15% | -1% | 12% | 1% | -7% | 8% | 2% |
| TRPML1 inh | -2 | 1 | 0 | 7 | 22 | 69 | -11 | -15 |
| ClpP mod | -8.6% | -0.4% | 2.6% | -1.4% | -0.2% | 0.2% | -1.8% | -1.1% |

9) CN1CCN(C(CNC(=O)C(=O)NC2CCCC2)c2ccc(F)cc2)CC1 (centres undefined)
10) O=C(c1cc(=O)[nH]c2ccccc12)N1CCc2ccccc2C1
11) COc1ccccc1NC(=O)c1cccc(N2C(=O)C3C4C=CC(C4)C3C2=O)c1 (centres undefined)
12) O=C(c1ccc(Cl)c([N+](=O)[O-])c1)N1CCN(S(=O)(=O)c2ccc(Cl)cc2)CC1
13) CC12CC(NC(=O)N1c1cccc(C(=O)N3CCN(c4ccccc4)CC3)c1)c1ccccc1O2 (centres undefined)
14) CCCCOc1ccc(-c2cnc3ccccc3n2)cc1
15) CCCCn1c(N)c(N(CC(C)C)C(=O)c2ccc(S(=O)(=O)N3CCC(C)CC3)cc2)c(=O)[nH]c1=O
16) O=C(CSc1nnc2ccccn12)NNC(=O)c1ccccc1F

| assay / compound | 9 | 10 | 11 | 12 | 13 | 14 | 15 | 16 |
| --- | --- | --- | --- | --- | --- | --- | --- | --- |
| gsp ag | 9% | 4%[15.4 µM] | ? | 4% | -34%[inhibitor] | -5%[15.4 µM] | ? | 11%[15.4 µM] |
| Sfp inh | / | 14% | 4% | / | -12% | 5% | / | / |
| TRPV1 potentiator | -26 | 4 | -11 | 5 | -2 | -2 | 3 | / |
| Menin-MLL FL inh | / | -1.3 | 3.8 | / | 4.7 | 0.2 | / | / |
| gsp antagonist | 10% | 0% | -12% | ? | -11% | ? | -3% | 7% |
| TRPML1 inh | 7 | 3 | 11 | 4 | 6 | 13 | 1 | 8 |
| ClpP mod | 5.1% | 0.8% | -0.4% | 1.0% | 4.4% | -27% | -12% | -0.7% |

17) O=C(COC(=O)CNC(=O)c1ccc(Cl)cc1Cl)NC1CCCCC1
18) Cc1ccc(C)c(OCCC(=O)OCC(=O)NCc2ccccc2)c1
19) CCCCNC(=O)c1ccc2c(c1)N(C)C(=O)c1ccccc1S2
20) CC(=O)Nc1ccc(S(=O)(=O)n2cnc3ccccc32)cc1
21) O=c1[nH]sc2ccccc12
22) CCOc1ccccc1N1CC(O)=C(c2nc3ccccc3s2)C1=N
23) O=C(NCCCc1ccc(F)cc1)C1CCC(=O)N(CCCN2CCCC2=O)C1 (centres undefined)
24) Cc1cc(C)n(Cc2ccc(Cl)nc2)n1

| assay / compound | 17 | 18 | 19 | 20 | 21 | 22 | 23 | 24 |
| --- | --- | --- | --- | --- | --- | --- | --- | --- |
| gsp ag | -8% | 12%[15.4 µM] | -37%[inhibitor] | 2% | 17%[15.4 µM] | 21% | -5% | 5%[15.4 µM] |
| Sfp inh | 5% | / | 1% | 10% | 5µM* | 2% | 1% | 19% |
| TRPV1 potentiator | -9 | -8 | -14 | -10 | -5 | -8 | 17 | -4 |
| Menin-MLL FL inh | / | / | -0.3 | -3.3 | 0.9 | 0.9 | -1.0 | -0.6 |
| gsp antagonist | 2% | 4% | -14% | 16% | -2% | -3% | 11% | -1% |
| TRPML1 inh | 25 | -12 | 18 | 1 | -5 | -3 | 4 | 12 |
| ClpP mod | -2.2% | / | 1.5% | 1.3% | / | -13% | -8.0% | / |

25) CCOC(=O)c1ccc(S(=O)(=O)NCC(c2ccc(N(C)C)cc2)c2c[nH]c3ccccc23)cc1 (centres undefined)
26) COc1ccc(C(=O)N=C2SC3CS(=O)(=O)CC3N2Cc2ccc(F)cc2)cc1 (centres undefined)
27) COc1ccc(-c2nc(CS(=O)(=O)CC(=O)NCc3ccc4c(c3)OCO4)c(C)o2)cc1
28) CCCOc1ccccc1/C=C(\C#N)C(=O)Nc1cccc(C)n1
29) COc1ccc(O)c(CN2CCN(CCc3ccccc3)C(CCO)C2)c1 (centres undefined)
30) CC(=O)Nc1ccc(N/C=C/C(=O)c2ccc(Cl)cc2)cc1
31) Cc1nn(CCC(=O)O)c2nc(-c3cccnc3)cc(C(F)(F)F)c12
32) COc1cc(/C=C/C(=O)OCC(=O)NCCc2ccccc2)cc(OC)c1OC

| assay / compound | 25 | 26 | 27 | 28 | 29 | 30 | 31 | 32 |
| --- | --- | --- | --- | --- | --- | --- | --- | --- |
| gsp ag | -13%[15.4 µM] | -23% | 16% | 17%[15.4 µM] | 1%[15.4 µM] | -10%[15.4 µM] | -7% | -8%[15.4 µM] |
| Sfp inh | -10% | -5% | -4% | -7% | 6% | 0% | 13% | 7% |
| TRPV1 potentiator | -4 | -12 | ? | -10 | -7 | 7 | -6 | 4 |
| Menin-MLL FL inh | 6.4 | -3.7 | / | 1.3 | -5.0 | ? | 4.0 | -0.7 |
| gsp antagonist | -30% | -3% | 0% | -33% | 5% | 3% | 0% | -27% |
| TRPML1 inh | -7 | -6 | -6 | -12 | 2 | -11 | 4 | -4 |
| ClpP mod | 25µM* | -2.5% | -30% | -0.6% | -0.9% | 0.6% | ? | / |

33) NC(=O)c1ccc(NC(=O)COc2ccc(-n3cnnn3)cc2)cc1
34) CCOc1ccc(NC(=S)Nc2cccnc2)cc1
35) COC(=O)c1ccc(C)c(N(CCO)CCO)c1
36) COc1ccc(S(=O)(=O)NNC(=O)c2csc(-n3nc(C)cc3C(F)(F)F)n2)cc1OC

| assay / compound | 33 | 34 | 35 | 36 |
| --- | --- | --- | --- | --- |
| gsp ag | 5% | -7%[15.4 µM] | -34%[inhibitor] | 13% |
| Sfp inh | / | ? | -5% | 14% |
| TRPV1 potentiator | 3 | 12 | ? | -6 |
| Menin-MLL FL inh | / | 4.4 | 1.4 | 0.8 |
| gsp antagonist | 9% | 14% | 0% | 0% |
| TRPML1 inh | 3 | -15 | -7 | 20 |
| ClpP mod | -3.3% | / | -1.5% | -1.6% |

Shown in markdown: entries from further up
| cpd | SMILES | gsp ag | Sfp inh | TRPV1 potentiator | Menin-MLL FL inh | gsp antagonist | TRPML1 inh | ClpP mod |
| --- | --- | --- | --- | --- | --- | --- | --- | --- |
| 35 | COC(=O)c1ccc(C)c(N(CCO)CCO)c1 | -34%[inhibitor] | -5% | ? | 1.4 | 0% | -7 | -1.5% |
| 36 | COc1ccc(S(=O)(=O)NNC(=O)c2csc(-n3nc(C)cc3C(F)(F)F)n2)cc1OC | 13% | 14% | -6 | 0.8 | 0% | 20 | -1.6% |

Whole records, quoted from the list:
NC(=O)c1ccc(NC(=O)COc2ccc(-n3cnnn3)cc2)cc1 across the screens: gsp ag: 5%; Sfp inh: /; TRPV1 potentiator: 3; Menin-MLL FL inh: /; gsp antagonist: 9%; TRPML1 inh: 3; ClpP mod: -3.3%
CCOc1ccc(NC(=S)Nc2cccnc2)cc1 across the screens: gsp ag: -7%[15.4 µM]; Sfp inh: ?; TRPV1 potentiator: 12; Menin-MLL FL inh: 4.4; gsp antagonist: 14%; TRPML1 inh: -15; ClpP mod: /

Screening data as filed in PubChem.
